Assay outcomes as filed in PubChem.
Bfl-1 A1 inh – inhibitors of the anti-apoptotic protein A1, read as caspase activation; caspase activation, % (test concentration not listed); 330,000 tested, 0.066% active; AID 2462; MEF A1-2A-BIM cells, Caspase-Glo 3/7 luminescence, 3 h; percent of clofoctol response, vehicle zero;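 active = over half of replicate activation scores above 10%, or exactly half above 10 with the replicate mean above 10; inconclusive = replicate mean below 10 yet half the replicates above 10; inactive = over half of replicates below 10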;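 note: wells of about 30 µL received 50 nL stock; many hits fall short of the cut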
B2AR ag – activates human beta-2 adrenergic receptor causing internalization | P07550 | Am2.2-beta2AR cells, FAP receptor internalization, flow cytometry; reference of the scale not given here | response, % (concentration not given with the values) | 340,000 tested, 0.43% active | AID 504454;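 active = response above a set limit, near 3 SD of response in nonfluorescent compounds, cut at about 42% in these data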;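 note: stock transfer was 100 nL into about 11 µL; a reference agonist was the positive control; negative values mostly stem from fluorescent compounds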
Target sequence (P07550 whole entry, looked up): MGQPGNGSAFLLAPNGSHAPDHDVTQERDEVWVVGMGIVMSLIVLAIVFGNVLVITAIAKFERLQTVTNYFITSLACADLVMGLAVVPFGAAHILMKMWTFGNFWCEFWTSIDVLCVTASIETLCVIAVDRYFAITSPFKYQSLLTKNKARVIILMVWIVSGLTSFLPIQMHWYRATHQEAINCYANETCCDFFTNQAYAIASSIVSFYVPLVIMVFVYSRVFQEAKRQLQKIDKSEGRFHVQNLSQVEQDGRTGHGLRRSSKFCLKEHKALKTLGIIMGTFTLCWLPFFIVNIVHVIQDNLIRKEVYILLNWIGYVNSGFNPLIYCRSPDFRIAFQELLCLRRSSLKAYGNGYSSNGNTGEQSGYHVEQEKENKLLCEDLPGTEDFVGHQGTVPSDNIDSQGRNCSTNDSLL
rRNA inh HTS – inhibits bacterial ribosomal RNA function over humanized ribosomes. E. coli WT GFP vs humanized-ribosome RFP mutants, fluorescence, 24 h; active compounds read low; DMSO median 0, no signal -100. GFP signal change (wild-type ribosome), % (concentration not given with the values). 350,000 tested, 1.6% active;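 active = significant combined selectivity score with lowered wild-type GFP, culture density cut under 30%, mutant RFP and density less affected; inactive = any of these conditions unmet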; note: one replicate is shown; some compounds called inactive have numbers as strong as hits
T cruzi repl – T. cruzi replication inhibition. T. cruzi beta-gal in NIH3T3, luminescence, 90 h. inhibition, % (test concentration not listed). 300,000 tested, 1.4% active. AID 1885;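 active = mean inhibition across valid replicates above about 55%, limit read from the data; inconclusive = mean below that limit but half or more replicates reach it; inactive = mean below it, under half of replicates reach it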;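 note: signal also drops with host cell toxicity which is not excluded here; 0% = plate median of DMSO wells and 100% = zero luminescence signal; higher percent means less beta-gal luminescence so fewer parasites; stock transfer was 50 nL into about 50 µL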
Calb FLC – affects C. albicans growth with fluconazole; C. albicans CaCi-2 (fluconazole-resistant clinical isolate) + fluconazole, Alamar Blue growth, 48 h; AID 1979; 300,000 tested, 0.57% active; growth inhibition, % (test concentration not listed);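 active = most replicates above 75%; inconclusive = exactly half above 75%; inactive = most below 75%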;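 note: all wells also contain fluconazole at 8 µg/ml as a sub-toxic cotreatment; 0% = median of DMSO wells and 100% = median of geldanamycin control wells; wells of about 8 µL received 7.5 nL stock; the first replicate is given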
ALR inh – blocks human ALR sulfhydryl oxidase activity. 290,000 tested, 3.8% active. purified ALR, DTT oxidation, H2O2 HRP-luminol luminescence. P55789. inhibition, % (no concentration beside the values);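 active = mean and each replicate at 75% or more; inconclusive = only one of the two met; inactive = neither met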;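 note: stock transfer was 7.5 nL into about 7.5 µL; 0% = neutral wells and 100% = wells with inactivated enzyme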
Target sequence (P55789 whole entry, looked up): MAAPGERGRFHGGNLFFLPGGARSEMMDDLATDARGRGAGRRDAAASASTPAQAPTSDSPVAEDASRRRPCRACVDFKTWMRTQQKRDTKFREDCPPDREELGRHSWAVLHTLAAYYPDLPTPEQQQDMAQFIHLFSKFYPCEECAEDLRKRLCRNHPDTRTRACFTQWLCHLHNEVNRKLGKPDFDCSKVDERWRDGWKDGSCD
LANA-H2B inh – blocks KSHV LANA binding to histone H2A/H2B | cell-free LANA-H2A/H2B peptide, fluorescence polarization | 320,000 tested, 0.6% active | Q9QR71 | inhibition, % (concentration not given with the values); in the data active = inhibition mostly above about 10%, no sharp cut-off; inactive = mostly below about 6.7%;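 note: stock transfer was 7.5 nL into about 10 µL; 0% = median of vehicle wells and 100% = median of positive control wells; one replicate is shown; the record names a cut of 25% in any replicate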
Beta apoptosis – beta cell apoptosis inhibition; protection from apoptosis, % (no concentration beside the values); 300,000 tested, 0.8% active; INS-1E cytokine-induced death, ATP luminescence, 48 h; percent of positive-control rescue, neutral wells zero;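 active = all replicates at 75% or more, or half of them and the mean; inconclusive = half reach 75% but not the mean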;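 note: 0% = cytokine-treated negative control wells and 100% = positive control rescue; higher means more ATP so stronger rescue from cytokine killing; wells of about 40 µL received 100 nL stock; the first replicate is given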
rRNA inh HTS OD600 – also measured in rRNA inh HTS; calls as there; OD600 change, %; measured here: OD600 growth;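 optical density of the mix in the first replicate; 0 = DMSO median and -100 = no signal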
rRNA inh HTS RFP – second read-out of rRNA inh HTS, no call of its own (marks repeat the call); RFP signal change, %; measured here: RFP humanized mutant strains;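 first replicate; 0 = DMSO median and -100 = no signal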
* = called active by the depositor. The list is partial; rates above refer to the full screens.

Results for Cc1cccc(-n2nc3c(c2NC(=O)c2ccco2)CS(=O)(=O)C3)c1C ?
Bfl-1 A1 inh: 0.2; B2AR ag: -4; rRNA inh HTS: 20; T cruzi repl: -4; Calb FLC: 10; ALR inh: 2; LANA-H2B inh: -2.8; Beta apoptosis: 1; rRNA inh HTS OD600: 22; rRNA inh HTS RFP: 15

How did CCOC(=O)C1CCN(C(=O)CSC2=NCCS2)CC1 do in these assays?
Bfl-1 A1 inh: 0.4; B2AR ag: 10; T cruzi repl: -3; ALR inh: 49; LANA-H2B inh: 1.1; Beta apoptosis: 8

What do the screens show for `Cc1ccc(C(=O)N/N=C/c2ccoc2)cc1C`?
Bfl-1 A1 inh: -0.3; B2AR ag: 9; rRNA inh HTS: 2; T cruzi repl: -2; Calb FLC: -1; ALR inh: -8; LANA-H2B inh: 5.8; Beta apoptosis: -9; rRNA inh HTS OD600: 8; rRNA inh HTS RFP: 1.4

What do the screens show for `CC(=O)c1ccc(NC(=O)CCc2ccc(C)o2)cc1`?
Bfl-1 A1 inh: 0.0; B2AR ag: -4; rRNA inh HTS: 0; T cruzi repl: 3; Calb FLC: -5; ALR inh: 5; LANA-H2B inh: -5.3; Beta apoptosis: 1; rRNA inh HTS OD600: 0; rRNA inh HTS RFP: -0.6

How did CN(C)CCCN1C(=O)C(O)=C(C(=O)c2cccs2)C1c1cccc([N+](=O)[O-])c1 (configuration not stated) do in these assays?
Bfl-1 A1 inh: 1.4; T cruzi repl: -19; Calb FLC: -23; ALR inh: -2; LANA-H2B inh: -2.4; Beta apoptosis: 1

What do the screens show for `COc1cccc(/C=C2\SC(=S)NC2=O)c1OS(=O)(=O)c1ccc(NC(C)=O)cc1`?
Bfl-1 A1 inh: 0.5; B2AR ag: 77*; T cruzi repl: -3; Calb FLC: 22; ALR inh: 20; LANA-H2B inh: 3.0; Beta apoptosis: 0

What do the screens show for `CCOc1ccc(NC(=O)CN(C)C(=O)c2cn(-c3ccc(F)cc3)nc2-c2cccc(OC)c2)cc1OCC`?
Bfl-1 A1 inh: 2.0; B2AR ag: 3; rRNA inh HTS: 8; T cruzi repl: 11; Calb FLC: -5; ALR inh: -4; LANA-H2B inh: -0.8; Beta apoptosis: 6; rRNA inh HTS OD600: -3; rRNA inh HTS RFP: 0.2

How did CCC(=O)N1C(C(=O)N2CCCC2)CSC1c1ccc(OC)cc1 (configuration not stated) do in these assays?
Bfl-1 A1 inh: 0.2; B2AR ag: -4; rRNA inh HTS: 13; T cruzi repl: 2; Calb FLC: -3; ALR inh: -125; LANA-H2B inh: -1.7; Beta apoptosis: -5; rRNA inh HTS OD600: 2; rRNA inh HTS RFP: 5.5

How did COc1ccccc1/C=N/n1c(C)nnc1-n1nc(C)cc1C do in these assays?
Bfl-1 A1 inh: 0.2; B2AR ag: -1; T cruzi repl: -7; Calb FLC: -2; ALR inh: 5; LANA-H2B inh: 4.6; Beta apoptosis: -6

What do the screens show for `COc1ccc(Cl)cc1NC(=S)N1CCN(S(C)(=O)=O)CC1`?
Bfl-1 A1 inh: 0.4; B2AR ag: -5; rRNA inh HTS: 3; T cruzi repl: 5; Calb FLC: 3; ALR inh: -8; LANA-H2B inh: 6.6; Beta apoptosis: -3; rRNA inh HTS OD600: 3; rRNA inh HTS RFP: 1.1

How did Cc1ccc(N(C(=O)c2csnn2)C(C(=O)NC(C)(C)C)c2ccccn2)cc1 (configuration not stated) do in these assays?
Bfl-1 A1 inh: 1.3; B2AR ag: 1; rRNA inh HTS: 1; T cruzi repl: -10; Calb FLC: -4; ALR inh: -2; LANA-H2B inh: 3.8; Beta apoptosis: -1; rRNA inh HTS OD600: 0; rRNA inh HTS RFP: -3.2

How did Cc1ccc(NS(=O)(=O)c2ccc(NC(=O)c3cccs3)cc2)c(C)c1 do in these assays?
Bfl-1 A1 inh: 1.6; B2AR ag: -7; T cruzi repl: 13; Calb FLC: -12; ALR inh: -11; LANA-H2B inh: 0.8; Beta apoptosis: 12

What do the screens show for `O=C1c2ccccc2C(=O)c2cc(S(=O)(=O)Nc3ccccc3)ccc21`?
Bfl-1 A1 inh: 0.5; B2AR ag: 4; T cruzi repl: -13; Calb FLC: 0; LANA-H2B inh: -2.1; Beta apoptosis: 3

What do the screens show for `O=C(O)CN1C(=O)SC(Nc2ccc(C(=O)O)cc2)C1=O` (configuration not stated)?
Bfl-1 A1 inh: -1.3; B2AR ag: 5; T cruzi repl: -2; Calb FLC: -9; ALR inh: 7; LANA-H2B inh: -6.7; Beta apoptosis: 1

How did Cn1c(=O)c2c(nc(NCCNC(=O)c3ccco3)n2Cc2ccc(F)cc2)n(C)c1=O do in these assays?
Bfl-1 A1 inh: 0.1; B2AR ag: -20; rRNA inh HTS: 0; T cruzi repl: 2; Calb FLC: -3; ALR inh: -1; LANA-H2B inh: -2.2; Beta apoptosis: 6; rRNA inh HTS OD600: 5; rRNA inh HTS RFP: -1.9

How did CCOC(=O)c1sc(-c2ccc(Br)cc2)cc1N do in these assays?
Bfl-1 A1 inh: -2.0; B2AR ag: -1; rRNA inh HTS: -34*; T cruzi repl: -1; Calb FLC: -26; ALR inh: -1; LANA-H2B inh: -5.6; Beta apoptosis: -10; rRNA inh HTS OD600: -23*; rRNA inh HTS RFP: -1.9*

Results for O=C(COC(=O)c1ccc(NS(=O)(=O)c2cccs2)cc1O)Nc1ccc(F)cc1 ?
Bfl-1 A1 inh: -0.7; B2AR ag: 8; rRNA inh HTS: -8; T cruzi repl: 4; Calb FLC: -1; ALR inh: 7; LANA-H2B inh: -0.2; Beta apoptosis: 1; rRNA inh HTS OD600: -16; rRNA inh HTS RFP: 13

How did COc1cccc(OCc2nc(-c3cccc([N+](=O)[O-])c3)no2)c1 do in these assays?
Bfl-1 A1 inh: 0.5; B2AR ag: -2; rRNA inh HTS: 7; T cruzi repl: 25; Calb FLC: -4; ALR inh: -8; LANA-H2B inh: -0.3; Beta apoptosis: -2; rRNA inh HTS OD600: 12; rRNA inh HTS RFP: -2.2

How did CC1CC(C)CN(C(=O)/C=C/c2ccc([N+](=O)[O-])s2)C1 (configuration not stated) do in these assays?
B2AR ag: 4; rRNA inh HTS: -29*; T cruzi repl: 5; Calb FLC: 11; rRNA inh HTS OD600: -13*; rRNA inh HTS RFP: 3.9*

Results for Cc1ccc(C2=NN=C(NC(=O)CSc3nncn3C)SC2)cc1 ?
Bfl-1 A1 inh: 1.1; B2AR ag: 5; rRNA inh HTS: -23*; T cruzi repl: 5; Calb FLC: 25; ALR inh: 99*; LANA-H2B inh: 7.8; Beta apoptosis: -10; rRNA inh HTS OD600: -1.0*; rRNA inh HTS RFP: 2.7*

What do the screens show for `O=C(O)c1ccccc1OCCOCCOc1ccccc1C(=O)O`?
Bfl-1 A1 inh: -0.4; B2AR ag: 3; ALR inh: -11; LANA-H2B inh: -6.0; Beta apoptosis: -1

Results for COc1ccccc1C(=O)C1CCCN(C(=O)CSc2ccccn2)C1 (configuration not stated) ?
Bfl-1 A1 inh: 0.5; B2AR ag: -2; rRNA inh HTS: -11; T cruzi repl: -3; Calb FLC: -3; LANA-H2B inh: 4.3; Beta apoptosis: -4; rRNA inh HTS OD600: -7; rRNA inh HTS RFP: -0.3

What do the screens show for `COC(=O)CCC(=O)OC1(C)C(=O)C=C2C=C(C3CC3)N(CCCCO)C=C2C1=O` (configuration not stated)?
Bfl-1 A1 inh: -0.7; B2AR ag: 3; rRNA inh HTS: 10; T cruzi repl: -10; Calb FLC: -2; LANA-H2B inh: 0.9; Beta apoptosis: -4; rRNA inh HTS OD600: 17; rRNA inh HTS RFP: 5.7

Results for COc1ccc(OC)c(-c2csc(NC(=O)C3=COCCO3)n2)c1 ?
Bfl-1 A1 inh: -0.1; B2AR ag: -3; rRNA inh HTS: -30; T cruzi repl: 10; Calb FLC: -8; LANA-H2B inh: -1.4; rRNA inh HTS OD600: -34; rRNA inh HTS RFP: -6.7

How did Cc1cccc(C(=O)NCC(=O)OCC(=O)c2ccc(Cl)s2)c1 do in these assays?
Bfl-1 A1 inh: -0.8; B2AR ag: -2; rRNA inh HTS: 12; T cruzi repl: -2; Calb FLC: -7; ALR inh: -8; LANA-H2B inh: 5.7; Beta apoptosis: -10; rRNA inh HTS OD600: 15; rRNA inh HTS RFP: 2.1

Results for CCn1c(SCC(=O)NC2CCCC2)nnc1C(C)NC(=O)c1ccccc1Br (configuration not stated) ?
Bfl-1 A1 inh: 0.2; B2AR ag: 0; rRNA inh HTS: 4; T cruzi repl: 4; Calb FLC: -5; ALR inh: -1; LANA-H2B inh: -4.3; Beta apoptosis: -6; rRNA inh HTS OD600: 13; rRNA inh HTS RFP: -1.7

Results for Cc1ccc(S(=O)(=O)N2CCN(C(=O)CC(C)n3nc(C)c(Cl)c3C)CC2)cc1 (configuration not stated) ?
Bfl-1 A1 inh: -0.3; B2AR ag: 10; rRNA inh HTS: 0; T cruzi repl: 7; Calb FLC: 0; ALR inh: -2; LANA-H2B inh: -5.2; Beta apoptosis: -6; rRNA inh HTS OD600: -7; rRNA inh HTS RFP: 1.0

Results for COc1ccc(C(=O)CN2CCN(c3ncccn3)CC2)cc1 ?
Bfl-1 A1 inh: 0.1; B2AR ag: 11; rRNA inh HTS: 19; T cruzi repl: -2; Calb FLC: -3; LANA-H2B inh: -5.3; Beta apoptosis: -4; rRNA inh HTS OD600: 16; rRNA inh HTS RFP: 3.4

What do the screens show for `C=CC[C@@H](CC(=O)N(CCO)Cc1ccccc1)C(=O)N[C@H](COC(=O)[C@@H](CC=C)Cc1ccc(F)cc1)Cc1ccccc1`?
Bfl-1 A1 inh: 0.4; B2AR ag: 3; rRNA inh HTS: 11; ALR inh: -1; LANA-H2B inh: 0.5; Beta apoptosis: 6; rRNA inh HTS OD600: 3; rRNA inh HTS RFP: 1.6

Results for CC(C)c1cc(C(=O)OCC(=O)NC(=O)NCc2ccco2)c(O)c(C(C)C)c1 ?
Bfl-1 A1 inh: 0.0; B2AR ag: 8; rRNA inh HTS: 9; T cruzi repl: -17; Calb FLC: 4; ALR inh: -4; LANA-H2B inh: -3.1; Beta apoptosis: 0; rRNA inh HTS OD600: -1; rRNA inh HTS RFP: -2.9

How did Cc1ccc(N=N/C(=C\O)C(=O)c2ccc(Cl)cc2)cc1 do in these assays?
Bfl-1 A1 inh: 0.8; B2AR ag: 22; rRNA inh HTS: 10; T cruzi repl: -13; Calb FLC: -4; ALR inh: 3; LANA-H2B inh: -0.5; rRNA inh HTS OD600: 14; rRNA inh HTS RFP: 4.6

Results for CCCc1nnc(NC(=O)CC(C)c2ccccc2)s1 (configuration not stated) ?
Bfl-1 A1 inh: 0.6; B2AR ag: -1; rRNA inh HTS: 5; T cruzi repl: inconclusive; Calb FLC: -3; ALR inh: -5; LANA-H2B inh: 1.4; Beta apoptosis: 2; rRNA inh HTS OD600: 8; rRNA inh HTS RFP: 5.7
